# Assay outcomes: PubChem BioAssay, National Center for Advancing Translational Sciences (NCATS)
# D2 ag: human D2 receptor agonism in beta-arrestin assay; P14416; DiscoveRx PathHunter D2 beta-arrestin, luminescence, 90 min; 100% = 57 uM dopamine signal; activation, % (test concentration not listed); hit rate 0.084% among 360,000; AID 624465; in the data active = activation above about 40%; inconclusive = about 15% to 40%; inactive = below about 15%; note: compound concentration not given in the record; the text of the record calls up to 30% inactive
#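 DiscoveRx PathHunter D2 beta-arrestin cells (2,100/well) attached overnight, then compound-stimulated 90 min at 37 C in HBSS/10 mM HEPES/0.1% Tween-20 buffer; beta-galactosidase complementation read by luminescence after 1 h at ambient temperature. Dopamine 57 uM final (EC100) as control.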
# gsp antagonist: antagonizes gsp, the McCune-Albright syndrome mutation | Potency, µM (top dose mostly 76.9 µM), without a hit: at the top dose activity change, negative = inhibition, usual class: inhibitors | hit rate 0.4% among 340,000 | gsp-mutant cells, cAMP HTRF, 30 min; control for the full effect not named in the record; active = falling curve of any shape with a large fitted effect; inconclusive = falling curve, mostly with a smaller effect; inactive = flat or rising curve; cell line not stated here;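 note: intracellular cAMP measured with PDE inhibitor Ro 20-1724 present during compound exposure; potency is the fitted concentration of half-maximal effect; % is set by controls: 0 for no effect and ±100 for the full control effect; nearly all actives have a fitted effect of over 65% in size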
#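 Measurement of cellular cAMP by homogeneous time-resolved fluorescence following a 30 min compound exposure at 37C. The PDE inhibitor […] was present throughout; the assay buffer was DPBS with 0.05% BSA and 0.005% Tween 20.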
# CtBP-E1A inh: inhibitors of CtBP/E1A interaction | AID 651724 | hit rate 0.49% among 340,000 | AlphaScreen GST-E1A/His-CtBP binding, 1536-well; hits give low values; control for the full effect not named in the record | activity change, % (no concentration beside the values); in the data active means activity change below about -65%; inconclusive means about -30% to -65%; inactive means above about -30%; note: % is set by controls: 0 for no effect and ±100 for the full control effect; compound concentration not given in the record
#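 Homogeneous bead-based format: GST-tagged E1A captured on glutathione donor beads, His-tagged CtBP on nickel acceptor beads; compounds precede bead addition by 2 h at 37 °C.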
# gsp agonist: activates gsp, the McCune-Albright syndrome mutation. gsp mutant cells, cAMP HTRF, 30 min; control for the full effect not named in the record. Potency, µM (titrated, usually from 76.9 µM), inactives show at the top dose activation (cAMP increase), usual class: activators. hit rate 0.13% among 340,000. AID 624287; active = well fitted activation curve with a large enough effect; inconclusive = small, poorly fitted or top-dose-only effect, or another doubt; inactive = no such curve, though single readings can be large or run the other way; cell line not stated here;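 note: phosphodiesterase inhibitor Ro 20-1724 added with compounds to block cAMP breakdown; potency is the fitted concentration of half-maximal effect; nearly all actives have a fitted effect of over 60% in size; about a fifth of the inactives were tested at one dose only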
#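 Cells stably selected in G418 were plated at 2000/well, grown 16-24 hr, then given compounds in DMSO with the PDE inhibitor […] (300 uM solution added) for 30 min at 37C; cAMP was read by HTRF.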
# Six1-Eya2 inh: inhibitors of human Six1/Eya2 interaction; AID 651725; hit rate 0.56% among 360,000; AlphaScreen GST-Six1/His-Eya2 binding, biochemical; hits give low values; control for the full effect not named in the record; activity change, % (no concentration beside the values); in the data active = activity change below about -65%; inconclusive = about -30% to -65%; inactive = above about -30%; note: % is set by controls: 0 for no effect and ±100 for the full control effect; compound concentration not given in the record
# Target sequence (O00167 whole entry, looked up): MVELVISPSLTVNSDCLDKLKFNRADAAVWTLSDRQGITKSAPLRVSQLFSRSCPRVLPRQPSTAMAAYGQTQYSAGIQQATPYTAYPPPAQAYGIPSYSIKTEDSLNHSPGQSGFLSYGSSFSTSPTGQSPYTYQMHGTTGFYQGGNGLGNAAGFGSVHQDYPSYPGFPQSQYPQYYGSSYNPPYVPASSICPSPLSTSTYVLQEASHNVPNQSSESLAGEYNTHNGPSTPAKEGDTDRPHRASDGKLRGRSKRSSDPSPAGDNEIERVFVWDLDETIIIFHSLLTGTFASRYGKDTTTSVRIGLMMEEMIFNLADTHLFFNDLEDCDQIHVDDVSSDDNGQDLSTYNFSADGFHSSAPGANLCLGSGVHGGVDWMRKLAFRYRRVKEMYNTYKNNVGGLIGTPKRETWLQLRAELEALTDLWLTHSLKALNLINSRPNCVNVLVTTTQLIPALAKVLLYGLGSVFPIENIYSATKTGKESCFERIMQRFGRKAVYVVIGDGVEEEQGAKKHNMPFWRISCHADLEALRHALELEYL
# Target sequence (Q15475 whole entry, looked up): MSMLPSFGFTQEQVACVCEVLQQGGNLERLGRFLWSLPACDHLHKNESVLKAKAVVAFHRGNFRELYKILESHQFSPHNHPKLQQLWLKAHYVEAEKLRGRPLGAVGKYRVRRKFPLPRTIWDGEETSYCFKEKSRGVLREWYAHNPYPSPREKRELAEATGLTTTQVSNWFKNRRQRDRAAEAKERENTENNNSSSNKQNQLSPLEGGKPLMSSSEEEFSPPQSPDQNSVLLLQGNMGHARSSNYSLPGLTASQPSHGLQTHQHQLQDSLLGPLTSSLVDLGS
#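 AlphaScreen luminescence read after one hour at 37 °C in darkness. Pin-transferred compounds met GST-Six1 and His-Eya2 protein (5X stock 250 nM/500 nM) plus glutathione donor and Ni-chelate acceptor beads (5X, 50 ug/mL).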
# D2 potentiator: human D2 receptor positive allosteric modulation | hit rate 0.23% among 360,000 | potentiation, % (no concentration beside the values) | DiscoveRx D2 beta-arrestin cells, luminescence, 90 min; 100% = 57 uM dopamine signal | P14416; active = potentiation of 50% or more; inconclusive = 30% to 50%; inactive = 30% or less;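 note: compound concentration not given in the record; tested on top of an EC20 dose of dopamine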
#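 PathHunter D2 cells, attached overnight at 37 deg C, received compound in DMSO plus dopamine at EC20 (50 nM final) for 90 min at 37 deg C. Beta-arrestin recruitment was read as luminescence after 1 h with detection reagent at ambient temperature.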
# An asterisk follows results filed as active; ? = inconclusive; / = no result given; [ ] = remark or other dose. Rows are unselected; 1.4% or so of the library scored in one or more.
No.	Compound	D2 ag	gsp antagonist	CtBP-E1A inh	gsp agonist	Six1-Eya2 inh	D2 potentiator
1	CNC(=S)Nc1ccc(C23CC4CC(CC(C4)C2)C3)cc1	-3.0	-3%	-8	?	1	-5
2	CCOc1ccc(CCNC(=O)c2cn(C)c3ccc(S(=O)(=O)N4CCOCC4)cc3c2=O)cc1OCC	-1.4	-15%	-8	-28%	-4	0
3	O=C(CCC(=O)N1CCN(C2CCCCC2)CC1)Nc1nnc(C(F)(F)F)s1	-4.2	2%	-1	20%	-2	0
4	CCCCN1C(=O)C(CC(=O)NCC2CCCCC2)CC(C(=O)N(C)C)=C1C (centres undefined)	-7.6	/	4	-11%	1	4
5	O=C(Cc1ccc(-n2c(=O)[nH]c3ccccc3c2=O)cc1)N1CCN(c2ccccc2)CC1	-1.5	0%	0	-8%	-2	7
6	C[C@H]1CN([C@@H](C)CO)C(=O)c2cc(C#Cc3cccnc3)cnc2O[C@H]1CN(C)Cc1ccc(F)cc1	-3.1	/	-21	0%	-9	-9
7	COc1cc(/C=N/NC(=O)c2ccncc2)ccc1OC(=O)c1cccc(F)c1	-1.8	-31%	17	-21%[15.4 µM]	0	-5
8	CC(C)[C@@H](CO)N(C)S(=O)(=O)c1ccccc1Br	-3.7	9%	3	/	12	-2
9	O=C(CNC(=O)c1ccc(Br)o1)NCc1ccc2c(c1)OCO2	-4.4	0%	0	-11%	26	-42
10	CCn1c(SCC(=O)O)nnc1-c1cc2c(C)nn(-c3ccccc3)c2s1	-3.6	-1%	?	-27%	?	-9
11	Nc1ccccc1C(=O)N1O[C@@H]2C=C[C@H]1CC2	1.8	10%	6	/	-6	/
12	COc1ccccc1CN1CC(C(=O)NCc2nccn2C)CCC1=O (centres undefined)	-7.6	3%	2	0%	3	-4
13	Cc1cccc(-c2cc(N3CCCN(C)CC3)n3nccc3n2)c1	-2.3	/	-1	/	-1	-19
14	COc1ccc(O)c(/C=N/NC(=O)c2c(C)nnn2-c2nonc2N)c1	-0.4	18%	-11	15%[15.4 µM]	-3	-13
15	COc1ccccc1CN1CC(C(=O)NCc2cc(C)on2)CCC1=O (centres undefined)	0.2	20%	1	-1%	1	-11
16	COc1cccc(/C=C/C(=O)OCC(=O)c2ccccc2)c1OC	8.5	-13%	/	-16%	8	3
17	CC1CCCCN1CCNC(=O)c1ccc2c(=O)n(CCc3ccccc3)c(=O)[nH]c2c1 (centres undefined)	-1.6	21%	-8	8%	-1	-27
18	c1ccc(-c2ccccc2OCCOCCN2CCOCC2)cc1	-4.0	8%	16	1%	4	-26
19	O=C(Nc1nonc1NC(=O)c1cccs1)c1cccs1	-1.8	/	-16	-1%[15.4 µM]	2	-19
20	COc1ccc(O)c(/C=N\NC(=O)CCn2nnc3ccccc32)c1	-4.8	-12%	?	-57%[inhibitor]	?	0
21	CCOC(=O)NC(=O)c1cn(CCNCCO)c(=O)[nH]c1=O	-4.3	-9%	3	-2%[15.4 µM]	-16	12
22	CCNC(=O)COC(=O)C1CCC(=O)N(c2ccc(OC)cc2)C1c1ccc(OC)cc1 (centres undefined)	0.9	-3%	2	-11%	4	-10
23	COc1ccccc1NC(=O)Cn1nc(C(F)(F)F)c2c1CCCC2	-3.9	-5%	9	?	9	-9
24	Cc1c(C)c2ccc(OCC(=O)Nc3ccc(N4CCC(C)CC4)cc3)cc2oc1=O	5.2	-9%	1	3%	-8	-4
25	CCCCCCCCNc1nc(Cl)nc(NCc2ccco2)n1	-4.3	0%	8	28%[15.4 µM]	7	-8
26	CCCCNc1ccc2c3c(cccc13)C(=O)N(CCCC)C2=O	5.6	-10%	87	-4%[15.4 µM]	152	-4
27	O=C(CNC(=O)c1ccncc1)N/N=C/c1ccc(Br)cc1	-0.6	9%	/	1%	10	-2
28	CCOC1OC(=O)C(Cl)=C1Nc1ccc(C)cc1C (centres undefined)	0.2	-12%	21	-7%	-2	-27
29	COc1cccc(C(NC(C)=O)c2nc(/C=C/c3ccccc3)cs2)c1 (centres undefined)	-4.1	/	-16	/	-17	-2
30	Cc1cc(-c2ccco2)n(CC(=O)NCCCc2ccccc2)n1	-1.8	1%	0	2%	1	-5
31	CCn1nc(C(=O)Nc2cccc(C(F)(F)F)c2)c(Cl)c1Cl	-3.2	3%	4	2%	25	-16
32	CCn1c2ccccc2c2cc(NC(=O)CSc3nnc(-c4cccc(C)c4)o3)ccc21	-2.9	1%	0	0%	8	-4
33	CCc1nc2c(OCCOc3ccc(F)cc3)cccn2c1N(C)C(=O)c1ccccc1F	-0.9	/	-3	/	0	-4
34	COc1cccc(-c2nc(NC3CCCC3)c3ccccc3n2)c1O	5.9	-22%	-27	9%	-24	8
35	Cc1cc(NC(=O)CCC(=O)N(Cc2ccco2)C2(C(=O)NC3CCCCC3)CCCC(C)C2)no1 (centres undefined)	-0.6	-8%	0	10%[15.4 µM]	-14	-6
36	Cc1cc(NC(=O)CCC(=O)N(Cc2ccco2)C2(C(=O)NC3CCCC3)CCC(C)CC2)no1 (centres undefined)	-0.8	-29%	-4	9%[15.4 µM]	-6	-12
37	CCOc1ccc2oc(C(=O)N3CCCN(C)CC3)c(C)c2c1	1.0	14%	5	0%	-2	-10
38	CC1=NN(C(=O)CCCc2ccccc2)C(O)(C(F)(F)F)C1 (centres undefined)	-0.4	10%	2	-1%[15.4 µM]	2	-13
39	COc1ccc(/C=C/C(=O)NCC(=O)n2nc(C)cc2C)cc1	-2.0	4%	/	14%	-1	-20
40	COc1ccc(/C=C2\SC(=S)N(CCCC(=O)NNC(=O)c3ccccc3O)C2=O)cc1	4.4	-27%	/	-19%[15.4 µM]	-16	0
41	CCc1nnc(NC(=O)C2Cc3ccccc3CN2S(=O)(=O)CC)s1 (centres undefined)	-0.8	-12%	-7	14%[15.4 µM]	-7	10
42	COc1ccc(C(=O)CC(=O)C(=O)Nc2cccc(C(C)=O)c2)cc1	-6.7	-2%	6	?	-7	-3
43	O=C(NCc1ccco1)c1ccc([N+](=O)[O-])cc1Cl	5.3	-2%	/	2%	4	?
44	Cc1ccc(-n2ncc3c2CC(C)(C)CC3NC(=O)CN2CCCC2=O)cc1 (centres undefined)	-1.3	1%	-16	-6%	-1	7
45	Cc1ccc(-c2nc(N)s[n+]2-c2ccccc2)cc1	-1.7	-13%	3	35%	-6	-31
46	O=C(Cc1ccc(Cl)cc1)Nc1ncc([N+](=O)[O-])s1	-7.5	-19%	3	-20%[15.4 µM]	1	-2
47	Cc1ccccc1OCC(=O)NNC(=S)NC(=O)c1ccco1	-1.0	-7%	-4	37%	-4	0
48	C#CCOCCOCCOCCNc1nc(N2CCN(C(=O)CCCCCCCCCCNC(=O)[C@H](CCCCN)n3cc(CCO)nn3)CC2)nc(N2CCN(C(=O)CCCCCCCCCCNC(=O)[C@@H]([C@H](C)O)n3cc(C)nn3)CC2)n1	-1.1	5%	0	/	-2	-4
49	Cc1ccc(S(=O)(=O)N2CCC(C(=O)OCC(=O)N3CC(=O)Nc4ccccc43)CC2)cc1	-1.5	0%	3	9%	2	-9
50	COc1ccc(C(=O)N2CCN(c3ccccc3)CC2)cc1S(=O)(=O)NC1CC1	5.3	7%	9	-46%[inhibitor]	0	2

# 9 structures already listed, ordered by SMILES length, high to low.
No.	Compound	D2 ag	gsp antagonist	CtBP-E1A inh	gsp agonist	Six1-Eya2 inh	D2 potentiator
35	Cc1cc(NC(=O)CCC(=O)N(Cc2ccco2)C2(C(=O)NC3CCCCC3)CCCC(C)C2)no1 (centres undefined)	-0.6	-8%	0	10%[15.4 µM]	-14	-6
40	COc1ccc(/C=C2\SC(=S)N(CCCC(=O)NNC(=O)c3ccccc3O)C2=O)cc1	4.4	-27%	/	-19%[15.4 µM]	-16	0
50	COc1ccc(C(=O)N2CCN(c3ccccc3)CC2)cc1S(=O)(=O)NC1CC1	5.3	7%	9	-46%[inhibitor]	0	2
29	COc1cccc(C(NC(C)=O)c2nc(/C=C/c3ccccc3)cs2)c1 (centres undefined)	-4.1	/	-16	/	-17	-2
31	CCn1nc(C(=O)Nc2cccc(C(F)(F)F)c2)c(Cl)c1Cl	-3.2	3%	4	2%	25	-16
46	O=C(Cc1ccc(Cl)cc1)Nc1ncc([N+](=O)[O-])s1	-7.5	-19%	3	-20%[15.4 µM]	1	-2
37	CCOc1ccc2oc(C(=O)N3CCCN(C)CC3)c(C)c2c1	1.0	14%	5	0%	-2	-10
47	Cc1ccccc1OCC(=O)NNC(=S)NC(=O)c1ccco1	-1.0	-7%	-4	37%	-4	0
45	Cc1ccc(-c2nc(N)s[n+]2-c2ccccc2)cc1	-1.7	-13%	3	35%	-6	-31

# Following part
No.	Compound	D2 ag	gsp antagonist	CtBP-E1A inh	gsp agonist	Six1-Eya2 inh	D2 potentiator
51	O=C(Nc1ccc2oc(-c3ccc4ccccc4c3)nc2c1)c1ccc2c(c1)OCCO2	-0.1	7%	-11	26%	-13	26
52	CCCCNC(=O)CN(c1cccc(Br)c1)S(C)(=O)=O	3.5	-10%	8	-6%	4	0
53	NC(=O)C(=O)NCCCN1CCOCC1	-4.4	4%	-8	13%[15.4 µM]	17	-11
54	COc1c(C)cc(Br)cc1C(=O)Nc1cccc(NC(=O)c2ccco2)c1	-2.2	-23%	-15	-61%[inhibitor]	-4	-33
55	O=C(Cn1ncc2c3ccccc3n(Cc3ccccc3)c2c1=O)NCCCN1CCOCC1	-7.6	11%	1	?	-2	-6
56	CC(Oc1ccc(Cl)cc1Cl)C(=O)Nn1cnnc1 (centres undefined)	-1.6	6%	-1	17%	1	-7
57	COc1cccc(C(=O)Nc2ccc(NC(=O)C3CC=CCC3C(=O)O)cc2)c1 (centres undefined)	-6.0	-6%	-1	-12%[15.4 µM]	0	-6
58	O=C(O)Cn1cc(C(=S)N2CCCCC2)c2ccccc21	-4.5	1%	9	1%	0	1
59	CN(CC(O)COc1ccccc1F)C1CCCCC1 (centres undefined)	-4.6	11%	-9	27%	16	-13
60	Cc1ccc(C(=O)N/C(=C\c2ccc(C(C)C)cc2)C(=O)NCCCN2CCOCC2)cc1	-1.2	11%	-1	5%[15.4 µM]	10	4
61	Cc1cccc(N2CCN(C(=O)C3CCN(c4ncnc5c4nc4n5CCCCC4)CC3)CC2)c1C	1.5	?	/	-5%	-16	-4
62	O=C(CC1c2ccccc2Oc2ccccc21)N1CCN(c2ccccn2)CC1	2.9	?	8	-13%	4	-18
63	CCN(CC)S(=O)(=O)c1ccc(/C=C/C(=O)O)cc1	3.2	2%	-2	6%	8	-4
64	O=C(c1ccc(C(F)(F)F)cc1)N1CCC(=O)N(C(COCc2ccc(Cl)cc2)Cc2ccccc2)CC1 (centres undefined)	-0.3	-17%	-1	22%	-4	-5
